High-throughput results: PubChem BioAssay, National Center for Advancing Translational Sciences (NCATS)
aGal spleen mod: alpha-galactosidase A (human) modulation; P06280; human spleen homogenate, 4MU-alpha-Gal fluorescence, 40 min; Potency, µM (doses to about 80 µM), without a hit: at the top dose activity change, negative = inhibition, actives largely listed as inhibitors; 240,000 tested, 0.008% active;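 note: 0% = enzyme with vehicle and -100% = no enzyme basal signal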
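Fluorogenic readout (Ex 365/Em 440 nm) of 4-methylumbelliferone released from 1 mM 4-MU-alpha-galactoside by spleen homogenate, 40 min at 37C, pH 5.0. Data normalized to no-enzyme and enzyme controls; Hill-equation AC50 from compound titrations.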
GAA glycogen: GAA glycogen-cleavage inhibition or activation; Potency, µM (highest dose often 76.4 µM), for the others: at the top dose activity change, negative = inhibition, actives largely listed as inhibitors; recombinant GAA, glycogen substrate, Amplex Red glucose oxidase fluorescence; P10253; 300,000 tested, 0.38% active;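 note: 0% = full enzyme reaction and -100% = no-enzyme basal signal; the screen sought inhibitors and activators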
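qHTS, 1536-well; enzyme 4 nM final; cpd up to 77 uM; substrate bovine liver glycogen 30 ug; 50 mM citrate/phosphate pH 5.0, 0.01% Tween-20; 37 C, 40 min; Amplex Red detection 45 min RT; Hill fit → AC50.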
ALDH1A1 block: ALDH1A1 (human) enzyme inhibition | P00352 | Purified ALDH1A1, NADH fluorescence, propionaldehyde substrate | Potency, µM (highest dose often 75.3 µM), inactives show at the top dose activity, negative = inhibition, usual class: inhibitors | 220,000 tested, 7.3% active | AID 1030; active = well fitted inhibition curve with a large enough effect, not every such curve was filed as active; inconclusive = small, poorly fitted or top-dose-only effect, or another doubt; inactive = no such curve, though single readings can be large or run the other way;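 note: plate controls were no enzyme wells and a reference inhibitor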
Target sequence (P00352 whole entry, looked up): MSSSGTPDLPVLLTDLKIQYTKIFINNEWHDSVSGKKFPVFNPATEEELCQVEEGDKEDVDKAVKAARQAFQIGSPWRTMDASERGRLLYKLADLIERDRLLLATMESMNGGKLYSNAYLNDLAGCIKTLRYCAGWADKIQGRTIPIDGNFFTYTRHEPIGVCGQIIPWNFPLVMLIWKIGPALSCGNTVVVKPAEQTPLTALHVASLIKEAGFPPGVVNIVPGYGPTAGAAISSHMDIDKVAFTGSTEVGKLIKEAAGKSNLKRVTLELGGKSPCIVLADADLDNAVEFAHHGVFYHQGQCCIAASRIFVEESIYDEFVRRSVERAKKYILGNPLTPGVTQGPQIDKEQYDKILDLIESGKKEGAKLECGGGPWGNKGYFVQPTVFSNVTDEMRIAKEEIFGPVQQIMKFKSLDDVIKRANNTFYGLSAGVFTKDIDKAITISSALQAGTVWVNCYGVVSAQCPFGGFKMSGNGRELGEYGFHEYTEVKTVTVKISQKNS
GAA spleen mod: inhibits or activates alpha-glucosidase in human spleen homogenate; P10253; human spleen homogenate, 4-MU-alpha-glucoside fluorescence; Potency, µM (highest dose often 79.9 µM), inactives show at the highest dose activity change, negative = inhibition, usual class: inhibitors; 240,000 tested, 0.006% active; AID 2112;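 note: 0% = enzyme with vehicle and -100% = no enzyme basal signal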
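Compounds were titrated against alpha-glucosidase in spleen homogenate at pH 5.0, with 1 mM 4-methylumbelliferyl substrate for 40 min at 37 C. Reactions were quenched with pH 10 NaOH/glycine and fluorescence measured.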
SMN2 splice enh: enhancers of SMN2 splice variant expression | HEK293 SMN2-luciferase splicing reporter, luminescence, 30-36 h | Potency, µM (top dose mostly 46.1 µM), inactives show at the highest dose activity change, positive = activation, usual class: activators | 210,000 tested, 2.8% active | AID 1458; note: % of control where 0% means no effect; nearly all actives have a fitted effect of over 55% in size
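HEK293 cells carry an SMN2 minigene-luciferase reporter in which exon 7 inclusion puts luciferase in frame. Cells were seeded at 2000 cells/well, attached for 10-12 hours, then exposed to compounds for 30-36 hours at 37C before ONE-Glo luminescence.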
GoLoco inh red: inhibitors of human Gai1-RGS12 GoLoco interaction (red fluorophore). P63096. Gai1:RGS12 GoLoco peptide FP, rhodamine, 10 min. Potency, µM (top dose mostly 61.6 µM), for the others: top-dose activity, negative = inhibition, hits mostly inhibitors. 230,000 tested, 0.44% active; active = well fitted inhibition curve with a large enough effect, not every such curve was filed as active; inactive = no such curve, though single readings can be large or run the other way; note: % is set by controls: 0 for no effect and ±100 for the full control effect; nearly all actives have a fitted effect of over 30% in size; many of its hits are not listed in these tables
Target sequence (P63096 whole entry, looked up): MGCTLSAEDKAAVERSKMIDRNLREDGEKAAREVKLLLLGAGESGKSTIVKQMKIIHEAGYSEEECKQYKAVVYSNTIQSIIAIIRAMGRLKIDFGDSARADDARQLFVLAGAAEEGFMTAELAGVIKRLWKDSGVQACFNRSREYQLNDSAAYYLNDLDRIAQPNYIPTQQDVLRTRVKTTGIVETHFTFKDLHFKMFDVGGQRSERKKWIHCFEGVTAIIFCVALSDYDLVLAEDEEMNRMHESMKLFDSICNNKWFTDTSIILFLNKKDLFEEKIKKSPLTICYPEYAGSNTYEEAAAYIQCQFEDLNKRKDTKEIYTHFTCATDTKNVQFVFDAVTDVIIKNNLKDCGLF
GAA inh: inhibitors of human lysosomal alpha-glucosidase. P10253. purified human GAA, 4-MU-alpha-glucoside fluorescence. Potency, µM (titrated, usually from 76.9 µM), for inactives: top-dose activity change, negative = inhibition, hits mostly inhibitors. 200,000 tested, 0.005% active. AID 1466;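 note: plate controls were uninhibited enzyme wells for no effect and no-enzyme background for full effect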
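AC50 values come from Hill fits of compound titrations (up to 77 uM) against 4 nM human enzyme. Substrate 4-methylumbelliferyl-alpha-D-pyranoside at 400 uM, pH 5.0 citrate buffer, 20 min room temperature; fluorescence Ex 365/Em 440 after alkaline stop.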
Starred values were filed as active, the others as inactive; ? = inconclusive; . = no result given; & = joins results of further samples; [ ] = dose if it differs, or a comment. Unless noted, calls come from the whole dose curve; as a rule, active = well fitted curve in the direction sought with a large enough effect; inconclusive = small, poorly fitted or top-dose-only effect, or another doubt; inactive = no such curve, though single readings can be large; an effect the other way counts as inactive or inconclusive. Potency is the fitted concentration of half-maximal effect. A portion of the library, so the mix of outcomes need not match the whole.

| item | SMILES | SMN2 splice enh | GAA glycogen | aGal spleen mod | GAA inh | GoLoco inh red | GAA spleen mod | ALDH1A1 block |
| --- | --- | --- | --- | --- | --- | --- | --- | --- |
| 1 | C=CCc1cc(OC)ccc1OCCN(C)Cc1ccccc1 | -7.9% | 13.0% | -0.4% | 7.7% | -11.1% | -2.3% | -8.8% |
| 2 | Cc1cccc(Cn2c(C(=O)OC(C)C)cc3c2ccn3C)c1 | 20.3% | -6.1% | 1.6% | 3.2% | 5.7% | -13.7% | ? |
| 3 | O=C(CC1Nc2ccccc2NC1=O)Nc1ccccc1NC(=O)CC1Nc2ccccc2NC1=O (configuration not stated) | 1.5% | -28.7% | 4.2% | ? | 15.7% | -8.4% | ? |
| 4 | COc1ccc(-c2n[nH]c(C)c2-c2cnn(-c3ccccc3)c2)c(O)c1 | 6.1% | -11.6% | -3.9% | ? | -10.6% | 0.2% | 7.94µM* |
| 5 | CCCS(=O)(=O)c1c(S(=O)(=O)CCC)c2c(C)cccn2c1C(=O)N/N=C/c1cc(O)cc(O)c1 | . | 6.7% | 1.7% | . | -1.5% | -1.6% | 6.4% |
| 6 | COc1cccc(OCC(=O)NNC(=O)c2cccs2)c1 | -10.7% | -4.3% | 9.0% | -3.8% | 4.9% | -0.1% | 4.4% |
| 7 | CCOC(=O)N1CCN(C(=O)CNC2CCCCCCC2)CC1 | 7.7% | 22.2% | -3.0% | -2.4% | 9.4% | 2.3% | -4.5% |
| 8 | COC(=O)CCC(=O)OC1(C)C(=O)C=C2C=C(C3CC3)N(c3ccccc3)C=C2C1=O (configuration not stated) | 3.0%[9.22 µM] | -5.0% | 3.9%[17.5 µM] | . | -4.2%[14.2 µM] | 1.9%[17.4 µM] | ? |
| 9 | Cc1cc(NC(=O)CN2CCN(C)CC2)no1 | 11.4% | 4.7% | -4.1% | 3.6% | 5.5% | -0.9% | ? |
| 10 | CCCOc1ncnc2c1[nH]c1ccc(OC)cc12 | . | 3.8% | 1.5% | -10.3%[15.4 µM] | -2.2% | 2.8% | ? |
| 11 | CSc1ccccc1-c1n[nH]c(=S)o1 | -0.8% | -3.2% | 2.3% | -2.7% | 11.2% | 8.1% | 22.4µM* |
| 12 | O=C(/C=C/c1c[nH]c2ccccc12)c1cccc2ccccc12 | 27.0% | -9.4% | -21.1% | ? | 28.0% | -9.5% | ? |
| 13 | Cc1cccc(C)c1C(OCCN(C)C)C1CCCCC1 (configuration not stated) | -4.2% | -1.8% | -5.7% | -0.9% | -17.7% | 2.4% | 0.7% |
| 14 | c1ccc(CN2CCN(CCOCCOc3cccc4ccccc34)CC2)cc1 | -12.4% | 14.8% | -8.9% | 3.1% | 0.7% | -8.6% | ? |
| 15 | Cc1cc(C)c2ccc(C(=O)O)nc2c1O | 3.6% | 20.9% | 4.9% | -10.0% | 4.5% | 3.2% | -3.6% |
| 16 | CN1C(=S)N(c2ccccc2)C(=O)/C1=C/c1cccs1 | -6.9%[1.84 µM] | 6.6% | -9.5% | 1.5% | 1.1% | -9.5% | 10.3% |
| 17 | Cc1cc(C)n(C(=O)c2ccncc2)n1 | 7.1% | 7.5% | -7.4% | 2.6% | 3.9% | -5.0% | 7.8% |
| 18 | CC(=O)c1sc2nsc(SCCN3CCCC3)c2c1N | . | 4.9% | 3.0% | . | 1.4% | 14.8% | . |
| 19 | c1ccc(CC2CCN(Cc3ccccn3)CC2)cc1 | ? | 13.1% | -5.8% | 9.0% | -13.8% | -3.5% | -9.7% |
| 20 | CC(C)c1ccccc1OCCCCCNCCO | -7.8% | -10.6% | -1.4% | -3.8% | -15.0% | -1.0% | 17.8µM* |

Next section (4 carried over from the part before).
| item | SMILES | SMN2 splice enh | GAA glycogen | aGal spleen mod | GAA inh | GoLoco inh red | GAA spleen mod | ALDH1A1 block |
| --- | --- | --- | --- | --- | --- | --- | --- | --- |
| 17 | Cc1cc(C)n(C(=O)c2ccncc2)n1 | 7.1% | 7.5% | -7.4% | 2.6% | 3.9% | -5.0% | 7.8% |
| 18 | CC(=O)c1sc2nsc(SCCN3CCCC3)c2c1N | . | 4.9% | 3.0% | . | 1.4% | 14.8% | . |
| 19 | c1ccc(CC2CCN(Cc3ccccn3)CC2)cc1 | ? | 13.1% | -5.8% | 9.0% | -13.8% | -3.5% | -9.7% |
| 20 | CC(C)c1ccccc1OCCCCCNCCO | -7.8% | -10.6% | -1.4% | -3.8% | -15.0% | -1.0% | 17.8µM* |
| 21 | CC(C)c1nc(N2CCN(C(=O)c3ccco3)CC2)c2c3c(sc2n1)CCCC3 | -32.7%[inhibitor] | -4.9% | 3.9% | 0.6% | 2.5% | -18.0% | ? |
| 22 | C[C@H](NC(=O)c1[nH]cnc1C(=O)Nc1ccc(CNC(=O)OC(C)(C)C)cc1)C(=O)OC(C)(C)C | . | -19.9% | -5.7% | . | -3.2% | -6.3% | . |
| 23 | O=c1cc(O)c2sc3nc(-c4cccnc4)cc(C(F)(F)F)c3c2[nH]1 | 2.4% | 8.7% | -3.3% | -1.0% | 145.6%[activator] | -10.5% | 8.91µM* |
| 24 | c1ccc(CN2CCN(c3ncccn3)CC2)nc1 | 9.9% | 8.0% | 2.0% | -1.9%[15.4 µM] | 5.2% | 3.1% | ? |
| 25 | CCOc1ccc(NC(=O)C(c2ccccn2)N(C(=O)CCl)c2ccc(OCC)cc2)cc1 (configuration not stated) | 26.1% | ? | -7.1% | -4.7% | -13.6% | 3.2% | 8.91µM* |
| 26 | CC(C)N1CCC(N2CCN(Cc3ccc(-c4ccccc4Cl)o3)CC2CCO)CC1 (configuration not stated) | . | -1.2% | -4.9% | 3.4% | 2.2% | -5.0% | ? |
| 27 | CCCCCCN1N=C(C)C(C(=O)c2ccc(Cl)cc2)C1=O (configuration not stated) | 6.1% | 14.2% | 0.9% | -3.7% | 7.0% | -3.8% | ? |
| 28 | Cc1ccc(C(=O)COC(=O)c2ccncc2)cc1[N+](=O)[O-] | 16.3% | 7.0% | 1.5% | -14.8% | 8.7% | -4.8% | -10.3% |
| 29 | NC(=O)N/N=C/c1ccc(N2CCOCC2)s1 | 10.3% | 0.2% | -5.4% | ? | 17.3% | -1.8% | ? |
| 30 | CCOc1ccc2ccccc2c1/C=N/NC(=O)CNC(=O)C(c1ccccc1)c1ccccc1 | 28.3% | 2.9% | -18.4% | -2.3% | 0.9% | -6.4% | ? |
| 31 | CC(C)c1ccc(OCC(=O)NC(=S)Nc2ccc3c4c(cccc24)CC3)cc1 | -1.4% | -6.1% | 0.9% | -4.9% | 7.1% | -3.3% | ? |
| 32 | CCc1cccc(OCCN2CCCC2)c1 | 15.7% | 1.4% | -0.4% | -4.7% | -5.7% | 5.0% | 22.4µM* |
| 33 | COc1ccc(CN2CCN(C(=O)c3cccc(OC)c3OC)CC2)cc1OC | -6.9% | 4.2% | -8.5% | 6.6% | -16.4% | -5.2% | ? |
| 34 | S=C(NCc1ccco1)Nc1ccccn1 | 9.0% | -21.7% | 4.3% | -7.7% | -1.8% | -0.7% | ? |
| 35 | c1ccc(-c2ccccc2OCCCN2CCCCC2)cc1 | -3.2% | 4.3% | 2.0% | -9.9% | 5.8% | -1.6% | ? |
| 36 | COc1cc(CNCc2ccccc2C(F)(F)F)cc(OC)c1 | -15.2% | -4.1% | -0.1% | -2.1% | -1.6% | 1.1% | ? |
| 37 | COc1cccc(-c2nnc(NC(=O)c3ccc4ncsc4c3)o2)c1 | -17.5% | 4.1% | 1.5% | -9.4% | -1.2% | -4.5% | ? |
| 38 | COc1cc(NC(=O)c2cccnc2)ccc1-c1cc2ccccc2oc1=O | -25.9% | 6.8% | 3.1% | -8.0% | 17.1% | 1.8% | ? |
| 39 | CC(=O)Nc1cc2ccccc2oc1=O | -5.5% | 4.9% | -1.6% | -10.5% | -0.7% | 0.2% | 3.3% |
| 40 | O=C(O)c1nn(-c2cccc(Cl)c2)c(=O)cc1O | 10.2% | -1.9% | 10.5% | 5.7% | 18.6% | 8.6% | ? |

Continued.
| item | SMILES | SMN2 splice enh | GAA glycogen | aGal spleen mod | GAA inh | GoLoco inh red | GAA spleen mod | ALDH1A1 block |
| --- | --- | --- | --- | --- | --- | --- | --- | --- |
| 41 | O=C(NCCc1nnc2ccc(NCc3ccc(F)cc3)nn12)c1ccccc1 | -37.9% | -6.4% | 1.9% | -2.4% | -1.7% | -1.7% | -0.6% |
| 42 | O=S(=O)(c1cccc(C(F)(F)F)c1)N(CCCN1CCOCC1)Cc1cccs1 | -6.1%&8.7% | 4.0%&-12.2% | -6.4%&1.1% | -10.3%&-7.2% | 3.7%&-2.7% | -8.4%&-6.6% | 12.6µM* |
| 43 | O=C(O)Cn1cc(C(=S)N2CCCCC2)c2ccccc21 | 11.2% | -12.1% | 2.4% | 0.2% | -12.2% | -2.0% | 10µM* |
| 44 | CCOc1cc(S(=O)(=O)N2CCCCC2)ccc1F | 9.9% | 3.4% | 8.3% | -8.6% | -6.4% | 0.5% | -7.6% |
| 45 | COc1cc(C(c2oc(CO)cc(=O)c2O)c2oc(CO)cc(=O)c2O)cc(OC)c1OC | -3.3% | ? | 1.9% | -4.4% | -33.4% | 3.8% | -1.7% |
| 46 | C/C(=N\N=C1\NC(=O)C(CC(=O)O)S1)c1ccccn1 (configuration not stated) | . | 13.4% | -10.5% | -1.6% | 3.2% | -5.7% | -10.1% |
| 47 | COc1ccc(-c2cc(C(=O)NNC(=S)NC(=O)c3c(-c4ccccc4)noc3C)[nH]n2)cc1 | -7.7% | -12.7% | 5.7% | -35.6% | 25.0% | -18.2% | -12.5% |
| 48 | O=C(/C=C/c1ccccc1)NC(=S)Nc1ccc2c3c(cccc13)CC2 | -19.4% | 0.0% | -4.6% | 3.1% | 8.2% | -11.2% | -7.6% |
| 49 | CCOC(=O)C1=C(C)NC(SCC(=O)Nc2cc(C)on2)=C(C#N)C1c1cccs1 (configuration not stated) | ? | -26.4% | -12.4% | -0.3% | -4.8% | -4.0% | -12.1% |
| 50 | Fc1cccc(CSc2ccc3nnc(-c4cccnc4)n3n2)c1 | -34.2%[inhibitor] | 6.0% | 5.0% | 4.3% | -15.9% | -0.3% | -5.2% |
| 51 | CNCCCCOc1ccc(C(C)(C)C)cc1Cl | -35.6%[inhibitor] | -12.7% | -9.6% | 1.8% | 6.1% | ? | -7.0% |
| 52 | Cc1cnc(C)c(N2CCN(Cc3nc(-c4cccc(F)c4F)oc3C)CC2)n1 | . | -11.8% | 0.6% | ? | 17.1% | -3.1% | -5.8% |
